UUG fidelity: alters start codon recognition fidelity in yeast; AID 602363; S. cerevisiae UUG-firefly luciferase reporter, luminescence/redox ratio; actives 0.13% (n = 350,000); activity score, % at 18.7 µM;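 active means replicate mean at a twofold rise or more, about +100% in these data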;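 further: firefly luciferase made from a UUG start codon reports start codon fidelity; reporter light over untreated wells divided by growth signal over untreated wells; some hits fall short of that in this replicate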
Rce1 inh: inhibitors of yeast Ras-converting enzyme | Q03530 | yeast membranes, quenched prenylated peptide cleavage fluorescence | calls only | actives 0.27% (n = 290,000) | AID 2563;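 active means fall in fluorescence gain of 50% or more versus controls, with final raw signal at or below 3038400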;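 further: plate controls were neutral control wells for no effect and wells lacking membranes for full effect; tested at 10 µM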
Target sequence (Q03530 whole entry, looked up): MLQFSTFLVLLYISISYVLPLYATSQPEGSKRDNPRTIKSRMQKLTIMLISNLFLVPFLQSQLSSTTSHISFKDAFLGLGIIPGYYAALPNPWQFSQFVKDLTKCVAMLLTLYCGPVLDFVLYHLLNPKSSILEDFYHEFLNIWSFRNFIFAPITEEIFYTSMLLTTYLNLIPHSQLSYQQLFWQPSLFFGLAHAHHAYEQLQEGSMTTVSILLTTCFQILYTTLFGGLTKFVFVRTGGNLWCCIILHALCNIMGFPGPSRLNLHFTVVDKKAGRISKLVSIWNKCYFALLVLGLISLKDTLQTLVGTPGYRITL
eIF4H FP inh: inhibitors of RNA binding by human eIF4H | Q15056 | eIF4H fluorescence polarization binding assay | inhibition, % at 35 µM | actives 0.94% (n = 290,000);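 active means 50% or more with normal probe brightness, or confirmed in later tests; about a fifth of its hits are not listed in these tables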;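 further: calls also rest on retests at 20 µM and on dose response follow-up; 0% = protein and probe with vehicle and 100% = probe without protein; strong numbers were not always called active; many hits fall short of the cut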
PABP polyA inh: PABP-poly(A) binding inhibition; AID 2014; inhibition, % at 35 µM; PABP-poly(A) RNA binding, fluorescence polarization; P11940; actives 1% (n = 290,000);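 active means 50% or more with normal probe brightness, or confirmed in later tests; about a fifth of its hits are not listed in these tables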;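 further: calls also rest on retests at 20 µM and on dose response follow-up; controls were probe without protein and protein plus probe with vehicle; some compounds called inactive have numbers as strong as hits; many hits fall short of the cut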
Target sequence (P11940 whole entry, looked up): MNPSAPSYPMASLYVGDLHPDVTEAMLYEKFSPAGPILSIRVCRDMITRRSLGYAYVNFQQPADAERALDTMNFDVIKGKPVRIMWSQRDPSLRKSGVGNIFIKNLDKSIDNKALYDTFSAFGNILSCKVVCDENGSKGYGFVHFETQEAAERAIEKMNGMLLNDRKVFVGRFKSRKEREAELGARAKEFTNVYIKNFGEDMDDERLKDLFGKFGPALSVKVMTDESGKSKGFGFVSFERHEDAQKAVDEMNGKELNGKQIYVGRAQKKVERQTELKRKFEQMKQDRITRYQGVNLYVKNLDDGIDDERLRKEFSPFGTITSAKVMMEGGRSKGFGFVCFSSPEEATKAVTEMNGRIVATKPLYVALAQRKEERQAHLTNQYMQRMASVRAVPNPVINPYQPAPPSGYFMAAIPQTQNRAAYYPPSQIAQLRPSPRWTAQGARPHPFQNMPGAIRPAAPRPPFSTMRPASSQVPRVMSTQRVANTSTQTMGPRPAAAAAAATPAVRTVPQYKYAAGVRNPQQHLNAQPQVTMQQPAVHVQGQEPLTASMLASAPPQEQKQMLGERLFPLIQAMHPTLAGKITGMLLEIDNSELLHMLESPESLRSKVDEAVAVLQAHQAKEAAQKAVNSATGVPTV
MT1-MMP act inh: inhibitors of human MT1-MMP activation; actives 0.061% (n = 360,000); GFP/RFP ratio change, % at 20 µM; AID 651647; HT1080 RFP-PRO-GFP cells, GFP/RFP ratio fluorescence, overnight; percent of plate control window, DMSO zero; P50281;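 active means GFP/RFP ratio change of at least 30% with cell ATP level not reduced by more than half and red fluorescence within 50% of control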; further: strong numbers were not always called active
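Test system: HT1080 cells expressing an RFP-PRO-GFP fluorescent reporter construct / Compound dosing: single-point 20 µM compound, 1% DMSO / Schedule: cells overnight before dosing, compound overnight, 37 °C, 5% CO2 / Evaluation: GFP/RFP fluorescence ratio / Control set: DMSO and RFP-L50D-GFP cell wells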
HIV Env fusion: HIV envelope-mediated fusion inhibition. HeLa-JRFL Env/CEM21 cell fusion, luciferase. inhibition, % at 12.3 µM. actives 1.1% (n = 360,000). AID 651610;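 active means mean replicate inhibition score of at least 50 and every replicate individually at or above 50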;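 further: 0% = plate neutral controls and 100% = maraviroc near 300 nM; one replicate is shown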
CSC inhib: cancer stem cell inhibition. cancer stem cell-like cells viability, luminescence. inhibition, % at 7.5 µM. actives 1.1% (n = 300,000);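 active means mean at 75% or more and at least half the replicates too; tested in HMLE shEcad cells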;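 further: 0% = median of negative and 100% = median of positive control wells; the first replicate is given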
eIF4H FP inh retest: recorded beside eIF4H FP inh, whose call it bears; inhibition, %; compound at 20 µM; confirmation average;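 mean of two retest wells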
PABP polyA inh retest: also measured in PABP polyA inh; calls as there; inhibition, %; compound at 20 µM; confirmation repeats;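 mean of two retest wells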
MT1-MMP act inh RFP: second read-out of MT1-MMP act inh, no call of its own (marks repeat the call); RFP signal change, %; measured here: RFP expression control read;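 0 = vehicle wells; hits needed this value within 50% of zero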
* hit, by the source's call. Not all compounds are listed (hit frequency here may not be typical).

What do the screens show for `O=C(CCNS(=O)(=O)c1ccc2c(c1)CCC(=O)N2)NCc1cccnc1`?
UUG fidelity: -14; Rce1 inh: inactive; eIF4H FP inh: 8; PABP polyA inh: 7; MT1-MMP act inh: 6; HIV Env fusion: -79; CSC inhib: 1; MT1-MMP act inh RFP: 1

How did COc1cccc(C2c3c(oc4ccccc4c3=O)C(=O)N2CCCN(C)C)c1OC (stereo not drawn) do in these assays?
UUG fidelity: 4; Rce1 inh: inactive; eIF4H FP inh: 2; PABP polyA inh: -6; MT1-MMP act inh: 4; CSC inhib: -25; MT1-MMP act inh RFP: 5

Results for CN(C(=O)Nc1ccc(F)cc1)[C@H]1C[C@H]2c3[nH]c4ccccc4c3CCN2C(=O)[C@H]1CO ?
UUG fidelity: 4; MT1-MMP act inh: 4; HIV Env fusion: -10; MT1-MMP act inh RFP: 0

Results for CN(CC(=O)Nc1ccc(F)c(F)c1F)C(=O)C1CCCO1 (stereo not drawn) ?
UUG fidelity: -13; Rce1 inh: inactive; MT1-MMP act inh: 5; HIV Env fusion: 5; CSC inhib: -12; MT1-MMP act inh RFP: 1

How did O=C(Oc1ccccc1O)c1cccc2ccccc12 do in these assays?
UUG fidelity: -21; Rce1 inh: inactive; eIF4H FP inh: 1; PABP polyA inh: -2; MT1-MMP act inh: 1; HIV Env fusion: -2; CSC inhib: 19; MT1-MMP act inh RFP: -6

How did Fc1ccc(-c2cc3nc(-c4ccccc4)cc(N4CCN(CCN5CCOCC5)CC4)n3n2)cc1 do in these assays?
UUG fidelity: -6; Rce1 inh: active; eIF4H FP inh: -12; PABP polyA inh: -10; MT1-MMP act inh: -1; HIV Env fusion: -2; MT1-MMP act inh RFP: -6

Results for CCN1CCN(C(=O)c2cc3cc([N+](=O)[O-])ccc3oc2=O)CC1 ?
Rce1 inh: inactive; eIF4H FP inh: 0; PABP polyA inh: 14; MT1-MMP act inh: 2; HIV Env fusion: -13; CSC inhib: -13; MT1-MMP act inh RFP: 3

Results for CCN1CCN(C(=O)C(=O)c2c(C)[nH]c3ccccc23)CC1 ?
Rce1 inh: inactive; eIF4H FP inh: 15; PABP polyA inh: 3; MT1-MMP act inh: 1; HIV Env fusion: -7; CSC inhib: -12; MT1-MMP act inh RFP: 1

How did Nn1c(-c2ccccc2Cl)nnc1-c1ccccc1Cl do in these assays?
UUG fidelity: -22; eIF4H FP inh: -4; PABP polyA inh: -6; MT1-MMP act inh: -6; HIV Env fusion: -134; CSC inhib: 25; MT1-MMP act inh RFP: -4

Results for COc1ccc(CC(C(=O)Nc2cccc(F)c2)c2nn[nH]n2)c(OC)c1 (stereo not drawn) ?
UUG fidelity: -22; Rce1 inh: inactive; eIF4H FP inh: -8; PABP polyA inh: 8; MT1-MMP act inh: 8; HIV Env fusion: -193; CSC inhib: -14; MT1-MMP act inh RFP: -2

Results for Cc1nc(N2CCC(C)CC2)c2c(C)c(C(=O)Nc3ccc4c(c3)OCCO4)sc2n1 ?
UUG fidelity: -33; Rce1 inh: inactive; eIF4H FP inh: 9; PABP polyA inh: -1; MT1-MMP act inh: -5; HIV Env fusion: 9; CSC inhib: 8; MT1-MMP act inh RFP: 1

What do the screens show for `N#Cc1ccc(C(=O)CSc2n[nH]c(=O)n2-c2cccnc2)cc1`?
UUG fidelity: 0; Rce1 inh: inactive; eIF4H FP inh: 1; PABP polyA inh: 19; MT1-MMP act inh: 0; HIV Env fusion: 4; CSC inhib: 1; MT1-MMP act inh RFP: -12

Results for CCOc1ccc2nc(SCC(=O)NC3CC3)sc2c1 ?
UUG fidelity: -10; Rce1 inh: inactive; eIF4H FP inh: -6; PABP polyA inh: 2; MT1-MMP act inh: 3; HIV Env fusion: -19; CSC inhib: -2; MT1-MMP act inh RFP: -4

What do the screens show for `CCOC(=O)c1[nH]c2ccc(OC)cc2c1NC(=O)CN1CCC2(CC1)OCCO2`?
UUG fidelity: -1; Rce1 inh: active; eIF4H FP inh: -4; PABP polyA inh: -2; MT1-MMP act inh: 3; HIV Env fusion: -107; CSC inhib: -9; MT1-MMP act inh RFP: 2

What do the screens show for `COC(=O)c1ccc(Cn2c(C)c(C(=O)NCc3ccc(C#N)cc3)sc2=O)o1`?
UUG fidelity: -14; MT1-MMP act inh: 5; HIV Env fusion: -9; MT1-MMP act inh RFP: -2

What do the screens show for `COc1cccc(NC(=O)COc2ccccc2C(N)=O)c1`?
UUG fidelity: -10; Rce1 inh: inactive; eIF4H FP inh: -4; PABP polyA inh: -6; MT1-MMP act inh: 1; CSC inhib: 1; MT1-MMP act inh RFP: 3

Results for O=c1c(C(c2ccc(O)cc2)c2c(O)nc3n(c2=O)CCS3)c(O)nc2n1CCS2 ?
Rce1 inh: inactive; eIF4H FP inh: 28; PABP polyA inh: 21; MT1-MMP act inh: 0; CSC inhib: 0; MT1-MMP act inh RFP: -3

What do the screens show for `O=C1NC(=O)C(Cc2c[nH]c3ccccc23)N1` (stereo not drawn)?
UUG fidelity: -13; Rce1 inh: inactive; eIF4H FP inh: 1; PABP polyA inh: 0; MT1-MMP act inh: -3; HIV Env fusion: -38; CSC inhib: -2; MT1-MMP act inh RFP: 2

How did Cc1cccc2sc(N3CCN(C(=O)C4COc5ccccc5O4)CC3)nc12 (stereo not drawn) do in these assays?
UUG fidelity: 9; Rce1 inh: inactive; MT1-MMP act inh: -1; HIV Env fusion: 1; CSC inhib: -5; MT1-MMP act inh RFP: 4

Results for COc1ccc2c(C)c(CCC(=O)NC3CC3)c(=O)oc2c1C ?
UUG fidelity: -19; Rce1 inh: inactive; eIF4H FP inh: 4; PABP polyA inh: 12; MT1-MMP act inh: 1; CSC inhib: 7; MT1-MMP act inh RFP: -8

Results for CN(C)c1ccc(/C=N/NC(=S)NCc2ccco2)cc1 ?
UUG fidelity: -14; Rce1 inh: inactive; eIF4H FP inh: -4; PABP polyA inh: -8; MT1-MMP act inh: -4; HIV Env fusion: 2; CSC inhib: 20; MT1-MMP act inh RFP: 1

Results for COc1ccc(C(=O)Oc2ccc(/C=N/Nc3ccc(Cl)c(C(=O)O)c3)cc2OC)cc1 ?
UUG fidelity: 6; Rce1 inh: inactive; eIF4H FP inh: -4; PABP polyA inh: 23; MT1-MMP act inh: 4; HIV Env fusion: -41; CSC inhib: -6; MT1-MMP act inh RFP: 8

Results for c1ccc(CSc2nnc(-c3ccccc3)c(-c3ccccc3)n2)cc1 ?
UUG fidelity: -9; Rce1 inh: inactive; MT1-MMP act inh: -5; HIV Env fusion: 0; CSC inhib: 1; MT1-MMP act inh RFP: -7

Results for O=C(CSc1nc2ccccc2o1)N/N=C/c1ccccc1C(=O)O ?
UUG fidelity: -26; eIF4H FP inh: -8; PABP polyA inh: 3; MT1-MMP act inh: 2; HIV Env fusion: -13; CSC inhib: -1; MT1-MMP act inh RFP: 2

The closing 2 compounds of the section above are carried over, then new ones follow:
Results for c1ccc(CSc2nnc(-c3ccccc3)c(-c3ccccc3)n2)cc1 ?
UUG fidelity: -9; Rce1 inh: inactive; MT1-MMP act inh: -5; HIV Env fusion: 0; CSC inhib: 1; MT1-MMP act inh RFP: -7

Results for O=C(CSc1nc2ccccc2o1)N/N=C/c1ccccc1C(=O)O ?
UUG fidelity: -26; eIF4H FP inh: -8; PABP polyA inh: 3; MT1-MMP act inh: 2; HIV Env fusion: -13; CSC inhib: -1; MT1-MMP act inh RFP: 2

Results for O=C(COC(=O)/C=C/c1ccc(C(F)(F)F)cc1)NC1CCCC1 ?
UUG fidelity: -15; Rce1 inh: inactive; eIF4H FP inh: 9; PABP polyA inh: 5; MT1-MMP act inh: -8; HIV Env fusion: -263; CSC inhib: -10; MT1-MMP act inh RFP: -3

What do the screens show for `c1ccc2c(CN3CCOCC3)c3ccccc3c(CN3CCOCC3)c2c1`?
UUG fidelity: 26; Rce1 inh: inactive; eIF4H FP inh: 43; PABP polyA inh: 23; MT1-MMP act inh: -14; CSC inhib: 0; MT1-MMP act inh RFP: -2

Results for CC(=O)C1=NOC(CNC(=O)c2c(-c3ccccc3Cl)noc2C)C1 (stereo not drawn) ?
UUG fidelity: -10; Rce1 inh: inactive; eIF4H FP inh: 106; PABP polyA inh: 8; MT1-MMP act inh: 6; CSC inhib: -3; eIF4H FP inh retest: -19; PABP polyA inh retest: 7; MT1-MMP act inh RFP: 2

How did Cc1ccc(C(=O)Cn2c(N3CCOCC3)nc3c2c(=O)n(C)c(=O)n3C)cc1 do in these assays?
UUG fidelity: -15; Rce1 inh: inactive; eIF4H FP inh: -8; PABP polyA inh: 1; MT1-MMP act inh: 3; HIV Env fusion: -33; CSC inhib: -2; MT1-MMP act inh RFP: 3

How did COc1ccc(/C(O)=C2/C(=O)C(=O)N(CCCN3CCOCC3)C2c2ccc(Cl)cc2)cc1 (stereo not drawn) do in these assays?
UUG fidelity: -10; MT1-MMP act inh: 0; HIV Env fusion: 5; MT1-MMP act inh RFP: 5

What do the screens show for `Cc1cc(-c2nc3ccccc3o2)c2ccccc2n1`?
UUG fidelity: -15; Rce1 inh: inactive; eIF4H FP inh: -11; PABP polyA inh: 5; MT1-MMP act inh: -4; HIV Env fusion: -75; CSC inhib: -1; MT1-MMP act inh RFP: 1

How did CCOC(=O)C1=C(C)C2C3C(=O)N(c4ccccc4C)C(=O)C3C1(C)C1C(=O)N(c3ccccc3C)C(=O)C21 (stereo not drawn) do in these assays?
UUG fidelity: -9; Rce1 inh: inactive; eIF4H FP inh: 1; PABP polyA inh: -10; MT1-MMP act inh: -9; HIV Env fusion: -18; CSC inhib: -6; MT1-MMP act inh RFP: -3

How did OCCC1CN(Cc2cc3ccccc3o2)CCN1Cc1ccc(F)cc1 (stereo not drawn) do in these assays?
UUG fidelity: -10; Rce1 inh: inactive; eIF4H FP inh: -6; PABP polyA inh: 1; MT1-MMP act inh: 3; HIV Env fusion: 0; CSC inhib: -4; MT1-MMP act inh RFP: 3

How did CN(C)c1ccc(C(=O)Nc2nnc(C3=COCCO3)o2)cc1 do in these assays?
UUG fidelity: -57; Rce1 inh: inactive; eIF4H FP inh: 1; PABP polyA inh: -4; MT1-MMP act inh: 6; HIV Env fusion: -27; CSC inhib: -5; MT1-MMP act inh RFP: 4

What do the screens show for `COc1ccc(CN2C[C@@H](CO)O[C@@H](n3cnc4c(N5CCN(C)CC5)ncnc43)C2)cc1`?
UUG fidelity: -21; MT1-MMP act inh: -2; HIV Env fusion: -49; MT1-MMP act inh RFP: 5

How did N#C/C(=C\c1ccc(-c2ccc(S(=O)(=O)N3CCOCC3)cc2)o1)C(=O)NC1CC1 do in these assays?
eIF4H FP inh: 0; PABP polyA inh: -2; MT1-MMP act inh: -3; HIV Env fusion: -49; CSC inhib: -7; MT1-MMP act inh RFP: -5

Results for N/C(=N\OC(=O)c1ccc(Cl)cc1Cl)c1ccccn1 ?
UUG fidelity: -90; Rce1 inh: inactive; eIF4H FP inh: -10; PABP polyA inh: -3; MT1-MMP act inh: 1; HIV Env fusion: 22; CSC inhib: 18; MT1-MMP act inh RFP: 6

Results for CCN(CC)C(=O)CN(c1cc(Cl)ccc1OC)S(C)(=O)=O ?
UUG fidelity: -18; Rce1 inh: inactive; eIF4H FP inh: 4; PABP polyA inh: -8; MT1-MMP act inh: 4; CSC inhib: -12; MT1-MMP act inh RFP: 13

How did CC(=O)NCCN1C(=O)S/C(=C\c2cccs2)C1=O do in these assays?
UUG fidelity: -23; Rce1 inh: inactive; eIF4H FP inh: 11; PABP polyA inh: 9; MT1-MMP act inh: 1; HIV Env fusion: -7; CSC inhib: -8; MT1-MMP act inh RFP: 1

What do the screens show for `C=CCn1c(=O)c2ccc(C(=O)NCc3ccccc3)cc2n(Cc2ccc(Cl)cc2)c1=O`?
Rce1 inh: inactive; eIF4H FP inh: -1; PABP polyA inh: -4; MT1-MMP act inh: -5; HIV Env fusion: 15; CSC inhib: 17; MT1-MMP act inh RFP: 0
